CtBP-E1A inh – blocks the CtBP interaction with E1A; AlphaScreen GST-E1A/His-CtBP binding, 1536-well; active compounds read low; control for the full effect not named in the record; activity change, % (no concentration beside the values); 340,000 tested, 0.49% active; in the data active means activity change below about -65%; inconclusive means about -30% to -65%; inactive means above about -30%; further: on the % scale 0 is the no-effect control and ±100 the full control effect
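Homogeneous bead-based format: GST-tagged E1A captured on glutathione donor beads, His-tagged CtBP on nickel acceptor beads; compounds precede bead addition by 2 h at 37 °C.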
TRPML1 blocker – blocks the human TRPML1 channel; Q9GZU1; TRPML1-inducible cells, Ca2+ dye fluorescence, FDSS; active compounds read low; inhibition of EC80 agonist-evoked calcium signal; activity change, negative = inhibition, % (test concentration not listed); 390,000 tested, 0.02% active; AID 624415; in the data active means activity change below about -50%; inconclusive means about -30% to -50%; inactive means above about -30%;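 further: stimulus is agonist 54-4 at its EC80 concentration; on the % scale 0 is the no-effect control and ±100 the full control effect; compound concentration not given in the record; the text of the record puts the active cut at -80%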
Target sequence (Q9GZU1 whole entry, looked up): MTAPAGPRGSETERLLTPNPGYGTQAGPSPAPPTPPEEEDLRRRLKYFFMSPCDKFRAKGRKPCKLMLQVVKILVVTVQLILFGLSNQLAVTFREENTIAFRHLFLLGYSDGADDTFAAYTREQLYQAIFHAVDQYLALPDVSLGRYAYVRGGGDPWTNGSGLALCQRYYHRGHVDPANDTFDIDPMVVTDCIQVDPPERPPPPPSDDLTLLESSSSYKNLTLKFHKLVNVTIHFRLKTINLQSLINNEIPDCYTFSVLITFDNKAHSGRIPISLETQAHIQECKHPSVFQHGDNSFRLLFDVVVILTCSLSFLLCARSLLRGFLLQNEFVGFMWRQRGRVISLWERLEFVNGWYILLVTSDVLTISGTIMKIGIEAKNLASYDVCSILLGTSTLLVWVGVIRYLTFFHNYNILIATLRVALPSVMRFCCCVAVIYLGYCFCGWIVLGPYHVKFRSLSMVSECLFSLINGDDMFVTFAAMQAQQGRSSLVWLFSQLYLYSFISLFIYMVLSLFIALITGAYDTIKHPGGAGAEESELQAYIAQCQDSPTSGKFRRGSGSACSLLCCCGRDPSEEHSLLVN
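TRPML1-DL cells, Tet-induced overnight (~16 h, 37 °C) at 1,500 cells/well, were loaded with Ca8 no-wash dye plus quencher for 45-90 min at room temperature. Compounds were pinned during FDSS kinetic reading; agonist 54-4 at EC80 (4 uM final) then added.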
Six1-Eya2 inh – blocks human Six1 binding to Eya2; AlphaScreen GST-Six1/His-Eya2 binding, biochemical; active compounds read low; control for the full effect not named in the record; Q15475+O00167; 360,000 tested, 0.56% active; activity change, % (no concentration beside the values); in the data active = activity change below about -65%; inconclusive = about -30% to -65%; inactive = above about -30%; further: on the % scale 0 is the no-effect control and ±100 the full control effect
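Six1/Eya2 binding was read as AlphaScreen signal after compounds were pinned into GST-Six1 plus His-tagged Eya2 (5X stock 250/500 nM) in pH 8.0 Tris/NaCl/TCEP buffer, beads added, then incubated 1 h, 37 C, dark.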
D2 potentiator – positive allosteric modulators of human D2 dopamine receptor; P14416; 360,000 tested, 0.23% active; DiscoveRx D2 beta-arrestin cells, luminescence, 90 min; 100% = 57 uM dopamine signal; potentiation, % (no concentration beside the values); active = potentiation of 50% or more; inconclusive = 30% to 50%; inactive = 30% or less;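 further: compound concentration not given in the record; tested on top of an EC20 dose of dopamine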
Target sequence (P14416 whole entry, looked up): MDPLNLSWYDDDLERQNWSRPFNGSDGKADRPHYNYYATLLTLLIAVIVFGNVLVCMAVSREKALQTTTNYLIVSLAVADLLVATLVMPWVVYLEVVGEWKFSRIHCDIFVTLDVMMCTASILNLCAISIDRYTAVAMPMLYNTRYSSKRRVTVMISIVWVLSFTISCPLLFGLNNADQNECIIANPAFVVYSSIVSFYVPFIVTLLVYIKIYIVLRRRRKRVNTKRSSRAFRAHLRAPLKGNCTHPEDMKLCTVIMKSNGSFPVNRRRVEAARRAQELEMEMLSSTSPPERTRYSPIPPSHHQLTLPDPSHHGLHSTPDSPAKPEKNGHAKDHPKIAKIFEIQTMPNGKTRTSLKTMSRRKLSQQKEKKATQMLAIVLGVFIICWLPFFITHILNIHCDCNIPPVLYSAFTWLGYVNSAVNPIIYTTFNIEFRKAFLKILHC
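PathHunter D2 cells, attached overnight at 37 deg C, received compound in DMSO plus dopamine at EC20 (50 nM final) for 90 min at 37 deg C. Beta-arrestin recruitment was read as luminescence after 1 h with detection reagent at ambient temperature.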
TRPML1 agonist – activates the human TRPML1 channel | Q9GZU1 | TRPML1-expressing cells, Ca2+ dye fluorescence, FDSS; host cell line not named in the record; reference of the full effect not given here | activation, % (no concentration beside the values) | 410,000 tested, 0.12% active | AID 624414; in the data active = activation above about 50%; inconclusive = about 30% to 50%; inactive = below about 30%; further: 0% is about no effect; the text of the record puts the active cut at 80%
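Tet-induced TRPML1-DL cells, 1,500 per well, cultured overnight, were loaded with a no-wash Ca2+ dye for 45–90 min. Calcium fluorescence was recorded on the FDSS for 110 s after compound addition, before the EC80 agonist (4 uM 54-4) was added.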
TRPV1 PAM – human TRPV1 potentiation | Q8NER1 | TRPV1-expressing cells, Fluo-8 calcium influx, capsaicin EC20 potentiation; host cell line not named in the record; control for the full effect not named in the record | potentiation, % at 8.33 µM | 320,000 tested, 0.02% active; active means potentiation above 80%; inconclusive means 30% to 80%; inactive means below 30%; further: 0% is about no effect
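Cells expressing TRPV1 were dye-loaded with Fluo-8 and read kinetically: 10 s baseline, 3 min after compound (agonist portion), then 2 min after EC20 capsaicin (allosteric enhancer portion). Calcium-bound dye fluorescence at 480/520 nm.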
An asterisk follows results filed as active; ? = inconclusive; nt = no result given; & = joins results of further samples.

SMILES	CtBP-E1A inh	TRPML1 blocker	Six1-Eya2 inh	D2 potentiator	TRPML1 agonist	TRPV1 PAM
O=C(CS(=O)(=O)c1cn(Cc2ccc(Cl)cc2)c2ccccc12)N1CCOCC1	2	1	2	-4	0.3	-2
NC(=O)c1ccc(SCC(=O)OCC(=O)N2CCCC2=O)c([N+](=O)[O-])c1	-24	21	-1	0	0.1	11
CS(=O)(=O)N1CCc2cc(C(=O)N3CCN(c4ccccc4)CC3)ccc21	4	14&-10	0	-6	0.3&-0.5	-20
CC1CC1C(=O)OCC(=O)c1c(N)n(C)c(=O)n(C)c1=O (stereo unspecified)	7	14	0	-31	0.7	2
Cc1ccc(C(=O)N2CCN(c3cnn(C)c(=O)c3Cl)CC2)cc1	0	-20	2	1	-0.3	3
COc1cccc(NC(=O)CCCCCn2nnc3ccccc3c2=O)c1	0	-3	-10	-2	1.1	-19
CCCS(=O)(=O)NC(=O)C1(C)CCCN(C(=O)c2ccccc2F)C1 (stereo unspecified)	3	nt	10	-8	-0.7	nt
CC(C)Cc1csc(=S)[nH]1	5	-9	7	0	1.9	nt
S=c1nc[nH]c2c1ncn2C1CCCO1 (stereo unspecified)	-2	-18	-7	-5	-0.6	-8
Cc1ccc(CNC(=O)c2cn(C3CCCCC3)c(=O)c3c2c2ccccc2n3C)o1	-8	-1	-11	-21	5.8	-2
Cc1cc(C(=O)C(C)OC(=O)C2=NNC(=O)CC2)c(C)n1-c1ccc(OC(F)F)cc1 (stereo unspecified)	-1	-8	0	-11	0.3	-4
O=c1nc(Nc2ccccc2)oc2ccccc12	-8	5	-3	-8	0.0	-10
Cn1c(NCCc2ccncc2)nc2cc(-c3ccsc3)sc2c1=O	-8	nt	-8	-10	-0.6	nt
COc1ccc(S(=O)(=O)N[C@@H](CSCc2ccccc2)C(=O)O)cc1	6	6	5	9	-0.7	15
O=C(N[C@@H](Cc1c[nH]c2ccccc12)C(=O)O)c1ccc(Cl)cc1	0	-5	2	-1	0.5	-6
CCOc1ccc(NC(=O)CN(C)C(=O)CC2OC(=O)c3ccccc32)cc1OCC (stereo unspecified)	2	-1	-8	1	-0.9	-2
N#Cc1nc(-c2ccccc2)oc1N1CCC(C(N)=O)CC1	-9	24	1	-9	0.5	-15
CC1(C)CC(=O)C2=C(C1)N=C1SCCC(=O)N1C2c1ccc(C(F)(F)F)cc1 (stereo unspecified)	12	-6	3	-4	0.4	-17
O=C(Nc1ccc(S(=O)(=O)NC2=NCCCCC2)cc1)c1ccc(Cl)cc1Cl	2	-4	-9	2	0.5	-4
Cc1ccc(S(=O)(=O)N2CCOCC2)cc1C(=O)OCC(=O)NC1CCCCC1	-8	-6	8	2	1.3	12
CO/N=C/c1ccc(N2CCN(C(=O)c3cccc(Cl)c3)CC2)c([N+](=O)[O-])c1	-1	0	-2	-13	-0.1	2
Cc1ccc(-n2nnnc2-c2cnoc2-c2cccc(F)c2)cc1	0	27	3	8	4.1	3
CN(C)C(=O)c1cccc(-c2cnc3c(NC=O)cc(-c4ccc(N(C)C)cc4)cn23)c1	-26	nt	-20	0	4.6	nt
CC1(c2nc3ccccc3[nH]2)CCC(=O)N1Cc1cccs1 (stereo unspecified)	9	16	3	2	-0.1	nt
CN(C(=O)COC(=O)c1ccc(=O)n(Cc2ccccc2)n1)C1CCCCC1	6	14	3	-2	0.8	1
CCC(=O)Oc1ccc(C(=O)Nc2cccc(C(=O)NC(C)(C)C)c2)cc1	2	4	-3	1	-1.0	4
Cc1ccc2c(c1)C(=O)C(=O)N2CCCOc1ccccc1C	22	49	0	-35	0.2	-5
Cc1ccc(Sc2ncccc2N)cc1	-6	2	3	-2	1.0	nt
COC(=O)c1c(-c2ccc(OC)cc2)sc2cc3c(cc12)OCO3	50	57	41	-8	-0.1	2
c1ccc2cc(Sc3ncnc4c3oc3ccccc34)ccc2c1	-1	10	6	-2	?	-2
Cc1ccc(S(=O)(=O)NCCS(=O)(=O)N2CCN(c3ccc(F)cc3)CC2)cc1	-3	-10	1	-10	1.5	10
CCCN(CC1CC1)C(=O)COc1ccccc1C(=O)NCc1ccccc1	3	20	-2	6	2.1	-18
Cc1nc2ccccn2c1C(=O)CSc1cccc(Cl)c1	-14	-17	3	-1	1.9	-5
CC[C@]1(C(=O)OC)[C@H]2C(=O)N(Cc3ccccc3)C(=O)[C@H]2[C@H]2CN=C(SC)N21	8	-12	6	nt	-0.7	nt
COc1ccc2cc(C[C@@H]3CC[C@@H](CO)O3)ccc2c1	3	11	3	nt	-0.4	nt
N#CC1=C(SCC(N)=O)NC(=O)CC1c1ccccc1Cl (stereo unspecified)	-6	-10	-26	-5	-0.6	-6
CCCNC(=O)c1ccccc1NS(=O)(=O)c1ccc(OC)c(OC)c1	-4	5	0	1	0.4	6
O=C(NCCC1CCCCN1S(=O)(=O)c1ccccc1)C(=O)NCc1ccc(F)cc1 (stereo unspecified)	-2	5	-5	-4	-0.2	12
Cc1nn(C(C)C(=O)Nc2ccc3c(c2)OCO3)c(C)c1[N+](=O)[O-] (stereo unspecified)	2	-8	-3	-10	-0.5	3
NC(=O)N/N=C/c1ccc(OCc2cccc(Cl)c2)cc1	-8	2	10	9	-1.0	0

A draw from above in order of number of heavy atoms, rising:
SMILES	CtBP-E1A inh	TRPML1 blocker	Six1-Eya2 inh	D2 potentiator	TRPML1 agonist	TRPV1 PAM
CCCS(=O)(=O)NC(=O)C1(C)CCCN(C(=O)c2ccccc2F)C1 (stereo unspecified)	3	nt	10	-8	-0.7	nt
CCCNC(=O)c1ccccc1NS(=O)(=O)c1ccc(OC)c(OC)c1	-4	5	0	1	0.4	6
CN(C(=O)COC(=O)c1ccc(=O)n(Cc2ccccc2)n1)C1CCCCC1	6	14	3	-2	0.8	1

(further entries)
SMILES	CtBP-E1A inh	TRPML1 blocker	Six1-Eya2 inh	D2 potentiator	TRPML1 agonist	TRPV1 PAM
COc1cc(OC)c2ccc(=O)oc2c1C(CCN1CCN(c2ccccc2)CC1)c1ccc(N(C)C)cc1 (stereo unspecified)	-24	0&10	?	-20	0.4&-0.9	0
CN1/C(=C\C(=S)Nc2ccccc2)C(C)(C)c2ccccc21	-22	-12	-28	-11	-0.8	-22
CCOc1ccc(OCC)c(S(=O)(=O)NC2CC(C)(C)NC(C)(C)C2)c1	-21	-8	8	-6	-0.2	6
CCCCN1CC(COCc2ccccc2)Oc2cccc(Oc3ccc(F)cc3)c2S1(=O)=O (stereo unspecified)	15	-3	9	-6	0.4	nt
O=C1c2ccccc2C(=O)c2c([N+](=O)[O-])ccc(O)c21	-28	14	-28	10	0.2	4
Cc1ccc2cc(NC(=O)c3ccc(C(C)(C)C)cc3)ccc2n1	-1	-13	-7	-6	1.4	-84
Fc1ccc(-c2[nH]ncc2CN2CCN(c3ccc(F)cc3)CC2)cc1	-7	11	-5	-20	0.1	nt
CN1CCc2c(sc(NC(=O)Cc3ccc(F)cc3)c2C(N)=O)C1	nt	-5	0	2	0.9	-9
COc1ccc(NC(=O)CS(=O)CC(=O)Nc2cccnc2)cc1 (stereo unspecified)	-10	-6	0	-4	-0.5	18
CN(C)c1ccc(NC(=O)c2cccc([N+](=O)[O-])c2)c2ccccc12	-28	4	-11	-9	1.2	-12
O=c1onc(-c2ccc(Cl)cc2Cl)n1-c1cccnc1	3	-13	7	59*	-0.7	nt
Cc1cnc(-c2nnc(N(C)C(=O)C3CCCO3)s2)cn1 (stereo unspecified)	-9	-2	-20	-11	0.2	1
CCCCN(C(=O)CCC(=O)Nc1cc(C)on1)C(C(=O)NC1CCCC1)c1ccc(OC)cc1 (stereo unspecified)	-12	44	1	-6	-0.6	7
CC1CN(C(=O)CSc2nnc(-c3ccccc3)o2)CC(C)O1 (stereo unspecified)	5	24	12	-9	-0.2	-11
Cc1nc2ccc(NC(=O)CCS(=O)(=O)c3ccc(Cl)cc3)cc2s1	-14	18	2	-2	1.8	-7
O=C(CSc1nnc(-c2cccnc2)o1)Nc1ccccc1F	3	10	-3	1	0.1	6
Cc1cccc(/C=C2\Sc3ccc(C(=O)N4CCC(C(N)=O)CC4)cc3N(C)C2=O)c1	nt	12	-16	-10	-1.0	-9
CCOC(=O)C(=CNc1ccccc1Cl)C(=O)OCC	nt	19	11	-64	5.6	-24
Cc1ccc(Nc2nc3ccccc3s2)c(C)c1	0	-1	3	-4	1.2	2
O=c1c(C(c2ccc(O)cc2)c2c(O)nc3n(c2=O)CCS3)c(O)nc2n1CCS2	-9	-2	-1	-2	2.0	-1
C/C(=N/NS(=O)(=O)c1ccc(Cl)cc1)c1ccc2c(c1)OCO2	nt	-1	-2	-17	-1.2	nt
CC(C)CC(=O)NCc1ccc(F)cc1	4	8	-1	-13	0.0	-11
Cc1ccc(CCNS(=O)(=O)c2cc3c(cc2C)NC(=O)CO3)cc1	-5	0	1	2	-0.8	2
CCOC(=O)c1sc(/N=C/N(C)C)nc1C	-2	-6	-3	-6	1.3	-13
CCc1nnc(SCC(=O)NC2CCCC2)nc1CC	-6	17	1	-2	-0.4	6
CC1CCN(C(=O)CCNC(=O)c2ccccc2)CC1	9	-4	8	-3	-0.2	11
Cc1cc(C)c(S(=O)(=O)NCc2cccnc2)cc1C	nt	-8	6	-4	-1.1	-16
Cn1c(NCc2cc(Br)ccc2O)nc2ccccc21	-27	-3	?	-12	3.2	1
CCOC(=O)c1ccccc1N/C=C/C(=O)c1cccs1	10	-20	-15	-25	2.5	11
Cc1nc(N2CCCC2)c2ccsc2n1	-9	7	-4	-9	1.3	?
CCCNS(=O)(=O)c1ccc(NC(=O)c2ccccn2)cc1	0	-14	-8	-12	?	1
O=C(NN1C(=O)NC2(CCCCC2)C1=O)c1ccc(-c2ccccc2Cl)o1	3	-7	3	-26	0.0	7
Nc1nnc(-c2ccccc2[N+](=O)[O-])o1	3	1	-6	-16	-0.4	11
CCc1ccc(-c2cc(C(=O)NCc3ccccn3)c3ccccc3n2)cc1	1	4	0	-12	2.1	-17
COc1cc(CN2CCN(c3ccccc3F)CC2)c([N+](=O)[O-])cc1OC	-12	11	-8	-4	5.1	-2
CC(/C=N/NC(=O)Cc1cccn1C)=C\c1ccccc1	1	-13	-14	-4	0.3	-2
CCCNC1=C(N(C(C)=O)c2cccc(F)c2)C(=O)c2ccccc2C1=O	-11	5	-16	?	-0.9	-5
O=C(CCCN1C(=O)CSc2ncccc21)N1CCN(Cc2ccccc2)CC1	23	-5	17	-3	0.2	-3
CC1CCCCC1NC(=O)C(=O)NCC1CCCO1 (stereo unspecified)	-1	-16	6	-1	0.3	8
CCC(=O)Nc1ccccc1C(=O)N1CCN(Cc2ccccc2)CC1	3	-16	12	13	0.8	0

Copied from the list.
TRPML1 agonist result of `CCOC(=O)c1sc(/N=C/N(C)C)nc1C` → 1.3
Six1-Eya2 inh result of `CC(/C=N/NC(=O)Cc1cccn1C)=C\c1ccccc1` → -14
TRPML1 blocker result of `CCc1ccc(-c2cc(C(=O)NCc3ccccn3)c3ccccc3n2)cc1` → 4

An excerpt taken from the entries so far:
SMILES	CtBP-E1A inh	TRPML1 blocker	Six1-Eya2 inh	D2 potentiator	TRPML1 agonist	TRPV1 PAM
C/C(=N/NS(=O)(=O)c1ccc(Cl)cc1)c1ccc2c(c1)OCO2	nt	-1	-2	-17	-1.2	nt
CC(C)CC(=O)NCc1ccc(F)cc1	4	8	-1	-13	0.0	-11
Cc1ccc(CCNS(=O)(=O)c2cc3c(cc2C)NC(=O)CO3)cc1	-5	0	1	2	-0.8	2

Screening data as filed in PubChem.
